Screening data deposited in PubChem BioAssay by several laboratories.
eIF4H FP inh = human eIF4H binding inhibitors, primary screen, translation initiation inhibitor project, biochemical, uHTS, fluorescence polarization; Eukaryotic translation initiation factor 4H (Homo sapiens), Q15056; eIF4H fluorescence polarization binding assay; inhibition, % at 35 µM; 290,000 tested, 0.94% active;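 active = 50% or more with normal probe brightness, or confirmed in later tests; about a fifth of its hits are not listed in these tables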;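 note: calls also rest on retests at 20 µM and on dose response follow-up; 0% = protein and probe with vehicle and 100% = probe without protein; strong numbers were not always called active; many hits fall short of the cut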
Rce1 inh = yeast Rce1p protease inhibitors, primary screen, biochemical, fluorescence, cell-free homogeneous; CAAX prenyl protease 2 (Saccharomyces cerevisiae (strain ATCC 204508 / S288c)), Q03530; yeast membranes, quenched prenylated peptide cleavage fluorescence; calls only; 290,000 tested, 0.27% active; AID 2563, 2010;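 active = fall in fluorescence gain of 50% or more versus controls, with final raw signal at or below 3038400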;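 note: plate controls were neutral control wells for no effect and wells lacking membranes for full effect; tested at 10 µM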
Target sequence (Q03530 whole entry, looked up): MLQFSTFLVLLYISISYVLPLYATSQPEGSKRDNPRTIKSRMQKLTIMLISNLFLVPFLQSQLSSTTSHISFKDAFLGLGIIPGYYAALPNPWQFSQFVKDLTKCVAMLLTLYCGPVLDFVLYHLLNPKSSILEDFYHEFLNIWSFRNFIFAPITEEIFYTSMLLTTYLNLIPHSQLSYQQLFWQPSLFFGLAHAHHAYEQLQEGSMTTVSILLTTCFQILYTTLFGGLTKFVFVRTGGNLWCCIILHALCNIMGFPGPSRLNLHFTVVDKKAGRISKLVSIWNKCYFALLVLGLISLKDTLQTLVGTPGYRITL
CSC inhib = cancer stem cell viability inhibitors, primary screen, luminescence; 300,000 tested, 1.1% active; inhibition, % at 7.5 µM; AID 2717, 2010; cancer stem cell-like cells viability;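 active = mean at 75% or more and at least half the replicates too; tested in HMLE shEcad cells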;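 note: 0% = median of negative and 100% = median of positive control wells; the first replicate is given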
Env fusion inh = inhibitors of HIV-1 Env-driven cell-cell fusion, primary screen, HeLa-JRFL effector, CEM21 target cells, luciferase | inhibition, % at 12.3 µM | 360,000 tested, 1.1% active;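 active = mean replicate inhibition score of at least 50 and every replicate individually at or above 50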;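 note: 0% = plate neutral controls and 100% = maraviroc near 300 nM; one replicate is shown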
UUG fidelity = modulators of yeast start codon fidelity, primary screen, whole organism, S. cerevisiae, single point, plate reader. 350,000 tested, 0.13% active. AID 602363, 2012. activity score, % at 18.7 µM. S. cerevisiae UUG-firefly luciferase reporter, luminescence/redox ratio;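 active = replicate mean at a twofold rise or more, about +100% in these data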;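 note: firefly luciferase made from a UUG start codon reports start codon fidelity; reporter light over untreated wells divided by growth signal over untreated wells; some hits fall short of that in this replicate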
MT1-MMP act inh = blockers of MT1-MMP proenzyme processing, primary screen, HT1080 RFP-PRO-GFP cells, GFP/RFP fluorescence. GFP/RFP ratio change, % at 20 µM. Matrix metalloproteinase-14 (Homo sapiens), P50281. GFP/RFP ratio fluorescence, overnight; percent of plate control window, DMSO zero. 360,000 tested, 0.061% active;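 active = GFP/RFP ratio change of at least 30% with cell ATP level not reduced by more than half and red fluorescence within 50% of control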; note: strong numbers were not always called active
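Assay system: HT1080 RFP-PRO-GFP cells | Dosing: 20 µM single dose, 1% DMSO | Incubation: Cells overnight before dosing, compound overnight, 37 °C, 5% CO2 | Evaluation: GFP/RFP fluorescence ratio | Control set: DMSO-only wells and HT1080 RFP-L50D-GFP cell wells as references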
PABP polyA inh = PABP poly(A) RNA binding inhibitors, primary screen, biochemical, fluorescence polarization, uHTS. inhibition, % at 35 µM. Polyadenylate-binding protein 1 (Homo sapiens), P11940. 290,000 tested, 1% active;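 active = 50% or more with normal probe brightness, or confirmed in later tests; about a fifth of its hits are not listed in these tables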;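 note: calls also rest on retests at 20 µM and on dose response follow-up; controls were probe without protein and protein plus probe with vehicle; some compounds called inactive have numbers as strong as hits; many hits fall short of the cut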
Target sequence (P11940 whole entry, looked up): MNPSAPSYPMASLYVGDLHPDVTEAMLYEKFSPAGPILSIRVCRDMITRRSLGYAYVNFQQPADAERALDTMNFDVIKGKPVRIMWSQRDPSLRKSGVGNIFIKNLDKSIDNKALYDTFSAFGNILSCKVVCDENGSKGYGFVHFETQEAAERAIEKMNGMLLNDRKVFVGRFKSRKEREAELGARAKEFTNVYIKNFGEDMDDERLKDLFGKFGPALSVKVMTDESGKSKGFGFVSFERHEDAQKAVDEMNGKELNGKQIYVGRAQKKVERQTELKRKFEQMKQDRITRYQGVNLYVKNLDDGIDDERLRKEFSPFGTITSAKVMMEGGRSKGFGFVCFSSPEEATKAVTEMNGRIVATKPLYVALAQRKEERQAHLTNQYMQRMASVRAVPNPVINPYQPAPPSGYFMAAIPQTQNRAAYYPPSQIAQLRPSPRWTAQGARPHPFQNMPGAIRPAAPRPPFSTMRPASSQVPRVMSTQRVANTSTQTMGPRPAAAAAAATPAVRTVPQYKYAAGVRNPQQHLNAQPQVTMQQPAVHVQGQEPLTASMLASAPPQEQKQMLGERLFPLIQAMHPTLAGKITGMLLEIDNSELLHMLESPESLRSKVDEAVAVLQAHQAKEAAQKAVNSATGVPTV
eIF4H FP inh retest = second read-out of eIF4H FP inh, no call of its own (marks repeat the call); inhibition, %; compound at 20 µM; confirmation average;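 mean of two retest wells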
PABP polyA inh retest = recorded beside PABP polyA inh, whose call it bears; inhibition, %; compound at 20 µM; confirmation repeats;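 mean of two retest wells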
MT1-MMP act inh RFP = further read-out of MT1-MMP act inh, marked with its call; RFP signal change, %; measured here: RFP expression control read;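 0 = vehicle wells; hits needed this value within 50% of zero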
The depositor's hits bear a star; i = inactive; . = no result given.

Preview, 3 compounds:
SMILES | eIF4H FP inh | Rce1 inh | CSC inhib | Env fusion inh | UUG fidelity | MT1-MMP act inh | MT1-MMP act inh RFP | PABP polyA inh | others
CCOC(=O)c1c(C)n(CC(O)CN(CC)CC)c2cc(Br)c(OC)cc12 (stereo unspecified) | -2 | i | 9 | -4 | -14 | -3 | -1 | -8
CCOC(=O)c1ccccc1NC(=O)COc1cc(=O)n(CC)c2ccccc12 | -2 | i | . | -8 | -20 | 0 | 1 | 3
N/C(CSc1ccccn1)=N\OCc1c(Cl)cccc1Cl | -2 | i | -13 | 4 | -14 | -2 | 0 | 2

All compounds of this part, from the start:
SMILES | eIF4H FP inh | Rce1 inh | CSC inhib | Env fusion inh | UUG fidelity | MT1-MMP act inh | MT1-MMP act inh RFP | PABP polyA inh | others
CCOC(=O)c1c(C)n(CC(O)CN(CC)CC)c2cc(Br)c(OC)cc12 (stereo unspecified) | -2 | i | 9 | -4 | -14 | -3 | -1 | -8
CCOC(=O)c1ccccc1NC(=O)COc1cc(=O)n(CC)c2ccccc12 | -2 | i | . | -8 | -20 | 0 | 1 | 3
N/C(CSc1ccccn1)=N\OCc1c(Cl)cccc1Cl | -2 | i | -13 | 4 | -14 | -2 | 0 | 2
CC(=O)c1cc(-c2ccccc2)n(CCC(=O)NC2CCCCC2)c1C | 0 | i | 2 | -28 | -17 | 2 | 3 | 21
CCN(c1ccccc1)S(=O)(=O)c1ccc(OC)c(NC(=O)CNC)c1 | 4 | i | . | 13 | -23 | 1 | 1 | 3
COc1ccc(S(N)(=O)=O)cc1C(N)=O | -1 | i | -7 | 15 | 1 | 2 | 6 | 2
CCOC(=O)C1=C[C@@H](c2ccccc2)N(S(=O)(=O)c2ccc(C)cc2)[C@H]1c1ccc(F)cc1 | . | . | . | 21 | -6 | -6 | -17 | .
COc1ccc(NC(=O)CCSc2ccc(F)cc2)cc1 | -6 | i | 19 | -17 | -8 | 4 | 1 | 2
Cc1cccc(C)c1OCC(O)CN (stereo unspecified) | -9 | i | -7 | . | -3 | 12 | 11 | -8
Cc1cccc(Nc2cc(C)nc3ccccc23)c1 | -7 | i | -15 | 4 | -11 | 0 | 0 | 0
Cc1c(NC(=O)CSc2nnnn2Cc2ccccc2)c(=O)n(-c2ccccc2)n1C | 2 | i | 0 | -53 | -2 | 4 | -3 | -6
Cc1nnc(-c2ccccc2)o1 | -3 | i | -26 | 2 | -31 | -5 | 3 | 0
COc1ccc(Nc2cc(C)c3cc([N+](=O)[O-])ccc3n2)cc1 | -17 | i | 15 | 3 | -10 | -5 | -7 | -4
COc1ccc2oc(-c3ccc(C)c(NC(=O)c4ccc(N5CCOCC5)c([N+](=O)[O-])c4)c3)nc2c1 | -1 | i | 3 | -182 | -19 | 0 | -2 | 6
Cc1ccccc1NC(=S)NC(NC(=O)C(C)(C)C)C(Cl)(Cl)Cl (stereo unspecified) | -8 | i | 1 | -42 | . | -5 | 3 | -5
CCCOc1ccc(Cn2c(=O)oc3ccc(C)cc32)cc1 | 0 | i | 11 | -1 | -26 | 1 | 0 | -6
COCCCn1c(C)nnc1SCC(=O)Nc1ccc(C(C)=O)cc1 | -6 | i | 3 | -7 | -9 | 4 | 2 | 2
O=C(Nc1ccc(OCC(=O)N2CCN(S(=O)(=O)c3ccccc3)CC2)cc1)c1ccco1 | -5 | i | -4 | -17 | -7 | -1 | 0 | 5
CC[C@@]1(C(=O)OC)N[C@H](CN(C)C(=O)Nc2ccccc2)[C@@H]2C(=O)N(C)C(=O)[C@@H]21 | . | . | . | -87 | -4 | 2 | 5 | .
CCOC(=O)N1CCN(C(=O)c2ccc(CS(=O)c3ccccc3)o2)CC1 (stereo unspecified) | 2 | i | 14 | -5 | -10 | 4 | 7 | 11
CCc1ccc2nc(NC(=O)c3cc(C)on3)sc2c1 | -2 | i | 59 | . | . | -3 | -11 | -9
N#Cc1ccccc1OCC(=O)Nc1ccc2c(c1)OCO2 | . | . | . | -90 | -14 | 0 | 0 | .
COc1ccc(C(=O)NCCS(=O)(=O)N2CCCC2)cc1 | . | i | -10 | -10 | -11 | 1 | 1 | .
O=C(Nc1ccc(N2CCOCC2)cc1)c1ccc2ncsc2c1 | . | . | -1 | -51 | -21 | 2 | -1 | .
Cc1ccc(-c2nnc(SCC(=O)NC3CCCc4ccccc43)n2N)cc1 (stereo unspecified) | 19 | i | -10 | 2 | -8 | 15 | 4 | -2
O=C(N/C(=C\c1ccc(Cl)cc1)C(=O)N1CCCCC1)c1ccco1 | 8 | i | -10 | -1 | 2 | -3 | -1 | 5
S=C(NC1CCCCC1)N1CCN(c2ncccn2)CC1 | -12 | i | 0 | 2 | . | 4 | -1 | 5
CCOC(=O)C1(CCOC)CCN(Cc2ccncc2)CC1 | -3 | i | 5 | 14 | . | -6 | 0 | -8
C=CCn1cnc2c(c1=O)c1nc3ccccc3nc1n2/N=C/c1ccccn1 | 0 | . | . | . | -10 | 28 | 4 | 10
NS(=O)(=O)c1ccc(CNC(=O)/C=C/c2ccccc2)cc1 | 0 | i | -6 | . | -18 | 4 | 5 | -2
O=C(CCN1C(=O)/C(=C\c2ccccc2F)SC1=S)Nc1ccc(C(=O)O)c(O)c1 | 9 | i | -5 | -5 | -8 | 0 | 2 | 17
COC(CNC(=O)[C@H](CSCc1ccccc1)N1Cc2ccccc2C1=O)OC | -4 | i | -5 | -2 | . | -2 | 1 | 3
CCn1c(SCc2cccc(F)c2)nnc1-c1ccncc1 | 1 | i | -9 | 5 | -17 | 2 | 1 | 1
CCOC(=O)C1(Cc2ccccc2C)CCCN(C(=O)c2cc(CC)nn2C)C1 (stereo unspecified) | -5 | i | -4 | 14 | . | -4 | 1 | 4
O=C(CCC(=O)N1CCCCC1)Nc1nnc(C2CCCCC2)s1 | 1 | i | -14 | -6 | -6 | 2 | -2 | 6
COC(=O)C1C(=O)/C(=C/N(C)C)C(=O)CC1(C)C (stereo unspecified) | 4 | i | -5 | 21 | -12 | 3 | 3 | -3
COC(=O)COc1ccc(S(=O)(=O)NCc2ccc3c(c2)OCO3)cc1C | 4 | i | -6 | 2 | -11 | 0 | -3 | -4
O=C(NNS(=O)(=O)c1ccc([N+](=O)[O-])cc1)C(=O)Nc1cccc(C(=O)O)c1 | 60* | i | -5 | 4 | -23 | -3 | 1 | 9 | eIF4H FP inh retest=58*;PABP polyA inh retest=12
O=C(NC(=S)N1CCN(c2ccc(C(F)(F)F)cc2[N+](=O)[O-])CC1)c1cccs1 | 2 | i | 12 | -3 | -28 | 5 | -3 | 0
CNc1nc(-c2ccc(S(=O)(=O)N3CCCCC3)cc2)cs1 | . | . | 20 | . | -6 | -1 | -4 | .
COc1ccc(NC(=O)COC(=O)Cn2c(C)nc3ccccc32)cc1OC | -13 | i | -5 | . | -1 | 4 | 2 | -6
CCN(CC)S(=O)(=O)c1ccc(Cl)c(NC(C)=O)c1 | 8 | i | 5 | 6 | -19 | 1 | 7 | 6
C=CCn1c(SCC(=O)CC(=O)OCC)nc2cc(C(=O)N3CCC(C(N)=O)CC3)ccc2c1=O | -2 | i | -10 | 18 | . | -5 | 2 | 7
O=C(O)c1ccc(OCCN2CCCC2=O)cc1 | -4 | i | 0 | -8 | -2 | -1 | 2 | 7
COc1ccc(NC(=O)Nc2cccc3[nH]c([C@@H]4O[C@H](CO)[C@@H](O)[C@H](O)[C@H]4O)nc23)cc1OC1CCCC1 | . | . | . | -23 | -24 | 6 | 4 | .
c1cc(CNCCN2CCNCC2)ccn1 | . | . | . | 21 | -19 | 2 | 8 | .
CCc1ccc(NC(=O)C(=O)NCCN2CCN(C(=O)c3ccc(OC)cc3)CC2)cc1 | . | . | . | 36 | -10 | -3 | -24 | .
Cc1cccc(NC(=O)CSc2nc(=O)n(CCCN3CCOCC3)c3c2CCCC3)c1C | . | . | . | -5 | 5 | 2 | 2 | .
COc1cccc(Cn2c(Oc3ccccc3)nc3c2c(=O)n(C)c(=O)n3C)c1 | -5 | i | -7 | -5 | -12 | -9 | -6 | -2
Cc1ccc(N2C(=O)N(CC(=O)N(C)Cc3ccccc3)C(=O)C2C)cc1 (stereo unspecified) | 1 | i | -7 | -2 | -7 | 6 | 3 | 4
CC(C(=O)Nc1ccccc1C(=O)N1CCCC1)n1nnc2ccccc21 (stereo unspecified) | 3 | . | -12 | -7 | . | -2 | 2 | -1
CSc1ccc(C(=O)C2CCCN(C(=O)c3nn(C)c(=O)c4ccccc34)C2)cc1 (stereo unspecified) | -2 | i | -9 | 19 | 2 | 2 | -7 | 0
COCCNC(=O)/C(C#N)=C1\N=C(NC(=O)c2cccs2)c2ccccc21 | -4 | i | -1 | -4 | -12 | -1 | 2 | 0
Cc1csc(NC(=O)CSc2nc(=O)n(CCN(C)C)c3c2CCCC3)n1 | . | i | -4 | -54 | 9 | 1 | 0 | .
COc1cccc(CNC(=O)C(C)n2ccc3cc(S(=O)(=O)N4CCCCCC4)ccc32)c1 (stereo unspecified) | -8 | i | 4 | 22 | -4 | 3 | -8 | -7
CCOc1ccc(/C=N/n2c(SC)nnc2-c2ccccc2)cc1OCC | -6 | i | -10 | -209 | -18 | -1 | -4 | -1
CCOc1ccc(CN2CCCN(C)CC2)cc1 | 1 | i | 27 | . | -8 | 6 | 3 | 9
CCOC(=O)NN1C(=O)c2ccccc2NC1c1cccs1 (stereo unspecified) | -7 | i | 1 | -13 | -2 | -3 | -2 | 5
O=C1NC[C@H](Cc2ccccc2)N(CC2CCN(CC3CCCC3)CC2)C1=O | . | . | . | 34 | -6 | 6 | 7 | .
Cc1cccc[n+]1CC(=O)c1ccc(NC(=O)c2ccccc2)cc1 | 9 | i | -17 | -3 | -15 | -1 | 5 | 8
(next part)
SMILES | eIF4H FP inh | Rce1 inh | CSC inhib | Env fusion inh | UUG fidelity | MT1-MMP act inh | MT1-MMP act inh RFP | PABP polyA inh | others
Cc1csc(SC(C)C(=O)NCc2ccc3c(c2)OCO3)n1 (stereo unspecified) | 12 | i | -1 | 26 | -20 | -1 | 0 | -9
O=C(CCl)Nc1cccc(S(=O)(=O)N2CCCCCC2)c1 | -11 | i | 19 | . | . | 1 | 2 | 2
O=C(/C=C/c1ccccc1O)c1ccco1 | -7 | i | 17 | 6 | -34 | 5 | 0 | 0
COC(=O)CCc1n[nH]c(=O)[nH]c1=O | -11 | i | -10 | -7 | -20 | 1 | 2 | -13
Cc1ccc(C(=O)N2CCC(N3CCC(C(=O)N4CCOCC4)CC3)CC2)cc1 | . | . | . | 4 | -4 | 0 | 2 | .
CC1=C(C)CC(C(=O)NCCc2ccc(F)cc2)C(C(=O)O)C1 (stereo unspecified) | 5 | i | -11 | 19 | 0 | 1 | 0 | 3
C/C(=N/NC(=O)c1cc(C2CC2)[nH]n1)c1cccs1 | -1 | i | 14 | 3 | -64 | -3 | -9 | -2
COc1cc(/C=N/NC(=O)C(Cc2c[nH]c3ccccc23)NC(=O)OCc2ccccc2)cc([N+](=O)[O-])c1O (stereo unspecified) | 9 | i | 6 | 10 | -7 | 12 | -4 | 5
COc1ccc(-c2cc(OC)c3ccccc3n2)cc1 | -6 | i | 14 | . | -3 | -3 | -1 | 3
